VDR inhibitor – blocks the human vitamin D receptor; VDR-SRC2-3 peptide fluorescence polarization, 2 h; P11473; Potency, µM, for inactives: max response, negative = inhibition, hits mostly inhibitors; 400,000 tested, 0.93% active; active means well fitted inhibition curve with a large enough effect; inconclusive means small, poorly fitted or top-dose-only effect, or another doubt; inactive means no such curve, though single readings can be large or run the other way; further: series mostly up to about 120 µM
Target sequence (P11473 whole entry, looked up): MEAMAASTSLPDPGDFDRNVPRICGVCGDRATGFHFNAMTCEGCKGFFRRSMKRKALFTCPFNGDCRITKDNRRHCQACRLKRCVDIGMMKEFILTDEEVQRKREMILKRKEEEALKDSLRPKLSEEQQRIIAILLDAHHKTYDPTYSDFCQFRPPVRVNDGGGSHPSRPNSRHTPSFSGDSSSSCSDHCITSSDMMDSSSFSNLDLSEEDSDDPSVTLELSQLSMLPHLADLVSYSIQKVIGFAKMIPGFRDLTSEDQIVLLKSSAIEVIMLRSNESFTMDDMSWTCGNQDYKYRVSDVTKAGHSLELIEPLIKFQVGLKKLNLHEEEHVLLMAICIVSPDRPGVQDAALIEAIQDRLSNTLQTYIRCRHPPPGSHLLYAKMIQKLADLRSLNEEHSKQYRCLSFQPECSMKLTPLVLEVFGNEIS
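Reagent solutions, kept cold and dark, are dispensed first; compounds are then pinned in at 23 nl, plates briefly spun, and incubated 2 h at ambient temperature. Inhibition of VDR–SRC2-3 peptide binding is read by fluorescence polarization.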
An asterisk follows results filed as active; ? = inconclusive; & = joins results of further samples. On the % scale 0 is the no-effect control and ±100 the full control effect; potency means the concentration at half of the fitted maximal effect. The list is partial; the hit share may differ from the screen's.

SMILES,VDR inhibitor
CSc1sc(C(=O)NN)c2c1C1(CCC2)SCCS1,-22%
Cc1ccc(S(=O)(=O)c2ccc(Cl)cc2)cc1S(N)(=O)=O,11%
CCc1nnc(NC(=O)C2CCN(C(=O)NC3CCCCC3)CC2)s1,3%
CCN(CC)C(=O)COc1ccc(/C(C)=N/NC(=O)c2ccccc2O)cc1,-3%
CCN(CC)S(=O)(=O)c1ccc2c(c1)N(CC(=O)NCc1ccco1)C(=O)CO2,18%
Cc1cc(C)cc(N2CC(C)(C)C2=O)c1,5%
NS(=O)(=O)c1ccc(CCNC/C=C/c2ccccc2)cc1,-3%
Cc1cc(Nc2ccc(Cl)cc2)nc(-c2ccccc2O)n1,-2%
Cc1ccc(NC(=O)c2cc3cccc([N+](=O)[O-])c3[nH]2)cc1,5%
COc1ccc(Nc2nc(C(=O)NCCCN3CCOCC3)cs2)cc1,-5%
O=S(=O)(Nc1ccccc1OC(F)F)c1ccc(S(=O)(=O)N2CCCC2)cc1,?
CCCCc1nnc(NC(=O)CCSc2ccccc2)s1,4%
Cc1cccc(OC(C)C(=O)N(Cc2cccs2)C2CCS(=O)(=O)C2)c1C (stereo not drawn),14%
CCOc1ncccc1C(=O)N1CCN(c2ccc(C(F)(F)F)cn2)CC1,-18%
CCOc1ccc(/C=N/NC(=O)c2cccc3ccccc23)c(OCC)c1,-1%
O=C(NCCC(=O)N1CCN(c2ccccc2F)CC1)c1ccco1,-19%
CCOc1ccc(N(CC(=O)Nc2ccc(Br)cc2)S(C)(=O)=O)cc1,-8%
COc1ccc(C[C@H]2CN3C(=NC[C@@H]3Cc3ccc(O)cc3)N2C[C@H](C)NC(=O)CCC2CCCCC2)cc1,6%
Cc1ccc(N(C(=O)c2snc(C(N)=O)c2N)C(C(=O)NC2CCCC2)c2ccc(C)o2)cc1 (stereo not drawn),-16%
Cc1ccc(C(=O)c2cn(CC(=O)Nc3ccc4c(c3)OCCO4)c3nc(C)ccc3c2=O)cc1,22%
CCOC(=O)[C@H]1[C@H]2COc3ccccc3[C@@H]2N2C(=O)CNC(=O)[C@@]12C,3%
COc1ccccc1C(=O)NC(=S)Nc1ccc(N2CCN(C(=O)c3ccco3)CC2)cc1,13%
CC(NCc1ccc(OCC(N)=O)cc1)C12CC3CC(CC(C3)C1)C2 (stereo not drawn),4%
O=C(C/C=N/OCc1c(Cl)cccc1Cl)c1cnc(-c2ccccc2)s1,-2%
O=C(O)CN1C(=O)/C(=C\c2cc(Br)ccc2OCc2ccc(Cl)cc2Cl)SC1=S,45µM*
COc1ccc(CCNC(=O)c2ccc(CNS(=O)(=O)c3ccc(C(C)(C)C)cc3)cc2)cc1OC,-5%
CCOC(=O)N1CCC(N(CCOC)C(=O)Nc2ccc(C)c(C)c2)CC1,-6%
COc1ccc(S(=O)(=O)N(CC(=O)N2CCOCC2)c2cc(Cl)ccc2OC)cc1OC,-3%
COc1ccccc1N1CCN(C(=O)CCCn2c(=O)[nH]c3ccsc3c2=O)CC1,0%
O=C(c1cc2ccccc2o1)N(Cc1nnc(-c2ccccc2Cl)o1)C1CC1,-15%
CSc1nc2ccc(NC(=O)C3=NN(c4ccccc4)C(=O)CC3)cc2s1,-5%
Cc1ccc(CNC(=O)C2CCN(S(=O)(=O)N3CCC(C)CC3)CC2)cc1,21%
CC(=O)c1nn(-c2ccc(OC(F)(F)F)cc2)nc1Nc1ccc(Cl)cc1,7%
O=C1CS/C(=N\N=C\c2ccccc2Cl)N1CC1CC1,3%
CC(=O)N1c2ccc(S(=O)(=O)NCC3CCC(C(=O)N4CCCCC4)CC3)cc2CC1C (stereo not drawn),-9%
O=C(Cn1nc(-c2cccs2)ccc1=O)Nc1ccc(Br)cc1,-1%
COc1ccc(C)cc1NC(=O)c1ccc(OCc2c(C)noc2C)cc1,13%
CCc1ccc(NCc2ccc(OC)c(Cn3ccnc3)c2)cc1,6%
CCCCc1nc2sc3c(c2c(=O)[nH]1)CC(C)(C)OC3,-3%
N#C/C(=C/c1cc(Br)cs1)C(=O)NCC1CCCO1 (stereo not drawn),8%
CC1CCc2c(sc3nnn(CC(=O)Nc4c(C(C)C)cccc4C(C)C)c(=O)c23)C1 (stereo not drawn),-8%
COc1ccccc1CNC(=O)CSc1nc(-c2ccc(OC)c(OC)c2)cc(C(F)(F)F)n1,1%
Cc1nn(Cc2ccccc2Cl)c(C)c1NC(=O)c1nc2ncccn2n1,-18%
Cc1ccc(CN(C)CC(=O)Nc2cccc([N+](=O)[O-])c2)o1,6%
O=C(NC1CCCCC1)c1cccnc1C(=O)O,7%
C/C(Cc1ccccc1)=N\NC(=O)CNC(=O)c1ccc(C(C)(C)C)cc1,-6%
N[C@@H](Cc1ccccc1)C(=O)N1CCC(C(=O)NCC(=O)Nc2ccc(F)cc2)CC1,4%
Nc1nc(-c2ccc3c(c2)CCCC3)cs1,10%
CC(=O)c1ccc(OCc2cccc(C(F)(F)F)c2)cc1O,8%
O=C(CCC(=O)N1CCOc2ccc(Cl)cc21)NCCCN1CCN(c2ccccc2F)CC1,4%
COC(=O)N1C(C)=Cc2ccccc2C1CC(C)=O (stereo not drawn),6%
Cc1cccc(C(=O)Nc2ccc(C(=O)N/N=C/c3cccnc3)cc2)c1,-7%
O=[N+]([O-])c1ccc(Cl)cc1Sc1cccc2cccnc12,-15%
COc1ccc(-c2ccc3oc(-c4ccsc4)c(-c4ccc(OC)cc4)c3c2)cc1,-5%
CC(C)(C)N1C(=O)[C@H]2[C@@H](c3ccc(Br)cc3)N3C(=O)N(c4cccc(Br)c4)C(=O)[C@@]3(Cc3ccccc3)[C@H]2C1=O,-12%
S=C(NCC1CCCO1)N1CCN(c2nc(-c3ccccc3)cs2)CC1 (stereo not drawn),-1%
C=CCNC(=S)NNC(=O)C(CCCC)CC(O)COCC(C)C (stereo not drawn),3%
CC1CN(c2cc(=O)n(Cc3ccc(F)cc3)c(=O)[nH]2)CC(C)O1 (stereo not drawn),-9%
Cc1cc(NC(=O)c2c(Cl)cnn2C)no1,4%
CCC(=O)NC(=S)Nc1ccc(OC)cc1OC,6%

Other entries:
SMILES,VDR inhibitor
CC(=O)c1ccc(NC(=O)CCn2cccn2)cc1,-1%
O=C(CSC1=NS(=O)(=O)c2cc(Cl)ccc2N1)c1ccc(Cl)cc1,-3%
CCOC(=O)C1=C(C)Nc2nc(SC)nn2C1c1ccc(C(=O)OC)cc1 (stereo not drawn),15%
CC(=O)c1ccc(NC(=O)C(C)N(C)CC(=O)Nc2cccc(F)c2)cc1 (stereo not drawn),-5%
CCCOC(=O)c1ccc(NC(=O)C2C3C=CC(O3)C2C(=O)O)cc1 (stereo not drawn),-10%
O=C(O)C(c1ccccc1)C(O)C1CC=CCC1 (stereo not drawn),-3%
CCn1c(SCC#N)nc2cc(S(=O)(=O)N3CCOCC3)ccc21,12%
Cc1ccc(N(Cc2cc3cc(C)ccc3[nH]c2=O)C(=O)c2cccs2)cc1,-11%
C[C@H]1CCC[C@]2(C)C[C@H]3OC(=O)C(CN4CCCCCC4)[C@H]3C=C12 (stereo partly drawn),-6%
N#Cc1cc2c(nc1SCC(=O)N1CCCCC1)CCCC2,14%
CCOc1ccc(CCNC(=O)c2ccc(-n3c(C)cc4c3CCCC4)cc2)cc1OCC,11%
CCN(CC)c1ccc(C2C3CCCCC3(O)CCN2CC(=O)Nc2ccccc2)cc1 (stereo not drawn),-7%

In the list so far, eight have an aryl thioether with sulfur outside any ring:
SMILES,VDR inhibitor
CSc1sc(C(=O)NN)c2c1C1(CCC2)SCCS1,-22%
CCCCc1nnc(NC(=O)CCSc2ccccc2)s1,4%
CSc1nc2ccc(NC(=O)C3=NN(c4ccccc4)C(=O)CC3)cc2s1,-5%
COc1ccccc1CNC(=O)CSc1nc(-c2ccc(OC)c(OC)c2)cc(C(F)(F)F)n1,1%
O=[N+]([O-])c1ccc(Cl)cc1Sc1cccc2cccnc12,-15%
CCOC(=O)C1=C(C)Nc2nc(SC)nn2C1c1ccc(C(=O)OC)cc1 (stereo not drawn),15%
CCn1c(SCC#N)nc2cc(S(=O)(=O)N3CCOCC3)ccc21,12%
N#Cc1cc2c(nc1SCC(=O)N1CCCCC1)CCCC2,14%

(more compounds)
SMILES,VDR inhibitor
Cc1cccc2c3nc4ccccc4nc3n(C)c12,-1%
O=c1cc(-c2ccccc2)cc(-c2ccccc2)n1CCO,4%
CCOC(=O)C1(Cc2cccc(OC)c2)CCN(Cc2ccccc2)CC1,1%
Cc1ccc(C)c(NC(=O)Nc2ccc3c(c2)OCO3)c1,4%
O=C(CC(c1ccccc1)c1cc(Br)ccc1O)NCCN1CCOCC1 (stereo not drawn),0%
CCN(C(=O)COC(=O)CCC(=O)c1ccc(C)cc1)c1c(N)n(Cc2ccccc2)c(=O)[nH]c1=O,5%
CC(=O)n1cc([C@@H]2C=C(C(=O)NCc3ccccc3)O[C@H](OCCCCO)C2)c2ccccc21,?
Oc1ccc(/C=N/Nc2nc(-c3ccc(Cl)cc3)cc(C(F)(F)F)n2)cc1,-1%
N#CCCS(=O)(=O)c1ccccc1,-7%
COc1ccc(C(=O)COC(=O)/C=C/c2ccccc2)c(OC)c1,-1%
O=C(NC1CCCCC1)C1CC(O)CN1C(=O)OCc1ccccc1 (stereo not drawn),-20%
O=C(NC(c1ccccc1)c1ccccc1)C1CCCN(S(=O)(=O)c2cnc[nH]2)C1 (stereo not drawn),-14%
CCOC(=O)c1cn(CC#N)c2cc(F)c(F)cc2c1=O,-3%
Cc1nc(C)c(-c2csc(Nc3ccc(O)cc3C)n2)s1,-22%
Cc1ccn2c(-c3csc(NCc4ccccc4)n3)c(C)nc2c1,-8%
O=C(NNc1ccccc1Br)C(=O)n1ccc2ccccc21,-3%
O=C(NCC(c1ccco1)N1CCN(c2ccccc2)CC1)C(=O)NC1CCCCC1 (stereo not drawn),-16%
COCC(=O)N1CCN(c2cccc(Cl)c2)CC1,-4%
COC(=O)C(Cc1ccccc1)NS(=O)(=O)c1cc(Br)ccc1Br (stereo not drawn),-2%
O=C(Nc1cccc(-n2cnnn2)c1)c1cccnc1,-5%
COc1ccc(-c2[nH]c(-c3ccc4c(c3)OCO4)nc2-c2ccccc2)cc1,8%
CN(C(=O)c1cccc(S(=O)(=O)N2CCCC2)c1)C1CCCCC1,-11%
CC1C/C(=N/O)C(C)CN1 (stereo not drawn),3%
CCOC(=O)c1c(C)c(C)n(Cc2ccc(OC)c(OC)c2)c1C,?
CC1Cc2nc(SCC(=O)Nc3ccc4c(c3)OCCO4)n(C)c(=O)c2S1 (stereo not drawn),8%
O=C(N/N=C\C=C\c1ccc(Br)cc1)c1ccc2c(c1)OCO2,2%
COc1ccccc1N1CCN(C(=O)CCC(=O)O)CC1,19%
CC(C)/C=C1\CCc2c([nH]c3ccccc23)C1=O,-2%
COc1ccccc1NC(=S)NC(=O)/C=C/c1ccco1,?
O=C1[C@H]2[C@@H](c3ccc(F)cc3)N3C(=O)N(c4cccc(F)c4)C(=O)[C@@]3(Cc3ccccc3)[C@H]2C(=O)N1C1CCCCC1,-11%
Cc1cc(C)c(S(=O)(=O)N2CC=C(c3ccccc3)CC2)c(C)c1,-1%
COCCCNc1nc(CC(C)C)nc2c1nnn2Cc1ccccc1,-8%
COc1ccccc1CCNS(=O)(=O)c1cn(C)nc1C,4%
Cc1nc2nc3c(c(=O)n2[nH]1)CCC3,-12%
CN(C)c1cc[n+](Cc2ccccc2)cc1,-8%
Cc1ccc(Nc2nnc(-c3ccccc3N)o2)cc1C,7%

A few values from the results shown:
CN(C)c1cc[n+](Cc2ccccc2)cc1 in VDR inhibitor → -8%
Cc1cc(C)c(S(=O)(=O)N2CC=C(c3ccccc3)CC2)c(C)c1 in VDR inhibitor → -1%
O=C1[C@H]2[C@@H](c3ccc(F)cc3)N3C(=O)N(c4cccc(F)c4)C(=O)[C@@]3(Cc3ccccc3)[C@H]2C(=O)N1C1CCCCC1 in VDR inhibitor → -11%
O=C(N/N=C\C=C\c1ccc(Br)cc1)c1ccc2c(c1)OCO2 in VDR inhibitor → 2%
Cc1ccc(Nc2nnc(-c3ccccc3N)o2)cc1C in VDR inhibitor → 7%

Later entries
SMILES,VDR inhibitor
CC1CN(c2cc(=O)n(-c3ccccc3)c(=O)[nH]2)CC(C)O1 (stereo not drawn),-19%
Cc1ccc(S(=O)(=O)Nc2cc(-c3ccc(Cl)cc3)nn2C)cc1,-19%
COc1ccc(S(=O)(=O)n2nc(C)c(S(=O)(=O)N3CCOCC3)c2C)cc1,-3%
CC[C@H](C)[C@@H](C(=O)NCCCCCCCCCCC(=O)N1CCN(C(=O)OC(C)(C)C)CC1)n1cc(CCCCCNC(=O)OC(C)(C)C)nn1,-11%
Cc1ccc2cc(C)c3nnc(SCc4ccc(C(=O)O)cc4)n3c2c1C,6%
Cc1nc(CN2CCN(C(=O)c3ccc(C(C)(C)C)cc3)CC2)cs1,-17%
Cc1nc2nc[nH]n2c(=O)c1NC(=O)CC12CC3CC(CC(C3)C1)C2,10%&-17%
Cc1ccc(C)c(CN2C(=O)c3ccccc3S(=O)c3ccc(C(=O)NCc4ccco4)cc32)c1 (stereo not drawn),-1%

Bioassay records: PubChem BioAssay, National Center for Advancing Translational Sciences (NCATS)
